Compound activity: PubChem BioAssay, Johns Hopkins Ion Channel Center
KCNQ2 pot: potentiators of rat KCNQ2 potassium channel. Potassium voltage-gated channel subfamily KQT member 2 (Rattus norvegicus), O88943. CHO-K1 KCNQ2, FluxOR thallium flux fluorescence; hits give high values. B-score at 10 µM. hit rate 0.54% among 310,000;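 active = fluorescence ratio B-score at least 3 SD of library B-scores, with initial fluorescence B-score within 3 SD, cut at about 5.3 in these data; same plate scores as AID 2156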;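 also: B-score of peak minus minimum over baseline fluorescence ratio after K+ and Tl+ stimulus; positive B-score means potentiation of KCNQ2 with more thallium influx and brighter signal; only the inactives scoring about 0 or higher are listed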
Target sequence (O88943 whole entry, looked up): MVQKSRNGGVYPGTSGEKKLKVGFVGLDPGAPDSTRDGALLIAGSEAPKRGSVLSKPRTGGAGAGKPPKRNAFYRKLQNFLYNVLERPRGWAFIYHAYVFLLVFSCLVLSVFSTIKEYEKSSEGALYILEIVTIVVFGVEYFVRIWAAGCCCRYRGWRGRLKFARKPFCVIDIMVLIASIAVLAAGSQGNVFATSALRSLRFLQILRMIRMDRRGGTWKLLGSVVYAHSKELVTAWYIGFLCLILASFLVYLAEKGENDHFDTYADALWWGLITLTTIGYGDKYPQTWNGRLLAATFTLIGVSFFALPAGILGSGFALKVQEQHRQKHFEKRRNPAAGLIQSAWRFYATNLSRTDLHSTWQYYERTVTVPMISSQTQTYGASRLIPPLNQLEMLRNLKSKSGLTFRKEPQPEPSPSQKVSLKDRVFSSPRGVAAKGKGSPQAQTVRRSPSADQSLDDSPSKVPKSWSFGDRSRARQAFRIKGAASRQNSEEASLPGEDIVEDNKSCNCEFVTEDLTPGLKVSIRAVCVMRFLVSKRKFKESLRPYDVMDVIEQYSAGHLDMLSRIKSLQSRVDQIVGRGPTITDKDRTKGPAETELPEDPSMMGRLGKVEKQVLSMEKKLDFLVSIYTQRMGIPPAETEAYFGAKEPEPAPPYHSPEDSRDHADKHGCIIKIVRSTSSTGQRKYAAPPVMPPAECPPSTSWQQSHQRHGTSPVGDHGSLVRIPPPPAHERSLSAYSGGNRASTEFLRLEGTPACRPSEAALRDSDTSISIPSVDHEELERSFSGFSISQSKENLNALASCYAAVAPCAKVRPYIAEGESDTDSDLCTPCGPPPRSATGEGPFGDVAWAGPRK
KCNQ2 pot baseline: further read-out of KCNQ2 pot, marked with its call; B-score; compound at 10 µM; measured here: initial fluorescence intensity artifact check;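 brightness before thallium and not channel activity; 0 = typical well and far values either way flag optical interference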
Numbers without * were called inactive.

SMILES | KCNQ2 pot | KCNQ2 pot baseline
O=C(Nc1ccc(S(=O)(=O)Nc2ncccn2)cc1)c1ccco1 | 0.1 | 0.67
O=C(Nc1ccccc1)OCC1CCCO1 (configuration not stated) | 0.28 | 0.69
NC(=O)[C@@H]1CCCN1C(=O)c1cc(COc2ccc(F)cc2F)on1 | 0.15 | 0.95
O=C(NC(=S)N1CCN(c2ccccc2)CC1)c1ccccc1 | 4.2 | 1.1
Cc1ccc(NC(=O)c2ccc(CSc3nccc(C)n3)cc2)cc1 | 0.42 | 0.46
Cc1ccc(S(=O)(=O)NCC2CCC(C(=O)NC3CCCCC3)CC2)cc1 (configuration not stated) | 0.55 | -0.56
COc1ccc(NC(=O)C=C(C)C)cc1Cl | 0.81 | -0.06
COC(=O)Cn1c(=O)c2c(n(Cc3ccccc3)c1=O)N/C(=C/c1ccc(OC)cc1)C2=O | 0.05 | 0.01
COc1ccc(S(=O)(=O)Nc2ccc(S(=O)(=O)Nc3nccs3)cc2)cc1 | 0.01 | 0.59
O=c1c2c3c(sc2nc2n1CCC2)CCCCC3 | 1.2 | -0.5
Cc1cc(Br)ccc1NC(=O)CCS(=O)(=O)c1cccc2nonc12 | 0.92 | -0.89
CN(C)/C=C1/Oc2c(ccc3ccccc23)C1=O | 1 | -0.07
COc1ccc(OC)c(-n2c(C)nc3cc(C(=O)O)ccc32)c1 | 3.4 | -2.3
NC(=O)CSc1nnc(-c2ccc(O)cc2)n1Cc1ccco1 | 0.15 | -0.05
Cc1cc(C)n2nc(C(=O)Nc3ccc(S(=O)(=O)N(C)C)cc3)nc2n1 | 0.01 | 0.35
Cc1ccc(S(=O)(=O)N2CCOCC2)cc1NC(=O)CSc1ncccn1 | 0.12 | 0.5
CCC(=O)c1cc2c(C)cc(=O)oc2c(C)c1OC(=O)C(C)C | 1.1 | 0.76
CCOC(=O)Cc1cc(C)[nH]c1C(=O)OCC | 0.66 | -0.47
O=C(NC1CCN(S(=O)(=O)c2ccc(Cl)cc2)CC1)C1CCCCC1 | 0.09 | -3.6
O=C(NCCCO)/C(=C\c1cn(-c2ccccc2)nc1-c1cccnc1)NC(=O)c1ccccc1 | 1.7 | 0.98
Oc1ccc2ccccc2c1/C=N/n1cnnc1 | 0.39 | -0.08
COc1ccc(Br)cc1CN(C)CC(=O)NCCc1ccc(S(N)(=O)=O)cc1 | 0.38 | -1.7
Cc1nc(C)c(-c2ccn(C(=O)NC(C)C)n2)s1 | 0.16 | 1.2
COc1ccc(S(=O)(=O)NCCC(=O)N2CCCC2)cc1N(C)S(C)(=O)=O | 0.23 | -0.1
COc1ccc(C(=O)NCCc2ccccc2)cc1[N+](=O)[O-] | 0.14 | -1.4
SMILES | KCNQ2 pot | KCNQ2 pot baseline
O=[N+]([O-])c1cc(/C=N/N2CCN(C3c4ccccc4-c4ccccc43)CC2)ccc1Cl | 0.13 | -0.99
CCOC(=O)c1cnc(SCc2nc(N)nc(Nc3ccccc3OC)n2)nc1N | 0.34 | -0.69
COc1ccccc1NC(=O)Cn1c([N+](=O)[O-])cnc1C | 2 | -1.8
CCOC(=O)c1cccc(NC(=O)Nc2ccc(OCC)cc2)c1 | 0.7 | -2.1
Cc1cccnc1NC(=O)c1c(O)c2ccccc2n(C)c1=O | 0.25 | -0.16
Cc1ccc2c(=O)c(C(=O)NCc3cccs3)c[nH]c2c1 | 0.01 | -2
CCC(CC)C(=O)NN(C(=O)c1ccncc1)C1CC(=O)N(c2ccccc2)C1=O (configuration not stated) | 1.6 | -1.1
C=CCNc1ncnc2c1ncn2C1OC(CO)C(O)C1O (configuration not stated) | 0.73 | -1.2
CN(C)S(=O)(=O)c1cccc(NC(=O)c2cc3c(=O)n4ccccc4nc3s2)c1 | 1.4 | 0.93
CC(C)[C@H](NC(=O)OCc1ccccc1)C(=O)OCC(=O)Nc1ccc(N2CCOCC2)cc1 | 0.59 | 1.3
COc1ccc(CCNC(=O)C(=O)c2c[nH]c3ccccc23)cc1OC | 2.4 | -0.08
C/C(=N\Nc1cccc([N+](=O)[O-])c1)c1cc2ccccc2o1 | 0.42 | -0.19
CC(C)C(=O)NNC(=O)CSc1nnnn1C(C)C | 0.9 | 0.74
CNC(=O)c1ccc(C)c(NC(=O)C2=C(C)OCCS2)c1 | 0.64 | 2
COC(CNC(=O)c1cn(C)c2ccc(S(=O)(=O)N(C)C3CCCCC3)cc2c1=O)OC | 0.19 | -0.19
O=C(CCn1cnc2ccccc2c1=O)Nc1cccc(Cl)c1Cl | 0.68 | -0.05
CCC(=O)N1CCc2cc(S(=O)(=O)NCCC(=O)NCc3ccc(F)cc3)ccc21 | 1.3 | -0.1
COc1cccc(C(=O)NCC(=O)N/N=C/c2cccc(OC(=O)c3ccc([N+](=O)[O-])cc3)c2)c1 | 1.2 | 2.1
COC(=O)c1nc(-c2ccccc2)oc1N(C)C | 1.2 | 0.19
CCOC(=O)Cc1csc(NC(=S)NC(=O)c2ccc(Cl)cc2)n1 | 1.4 | -0.02
COc1ccc(-c2onc3ccc(Br)cc23)cc1 | 0.35 | 0.01
Cn1c(=O)c2sccc2n2c(CCCC(=O)NCc3ccc(F)cc3)nnc12 | 1.5 | -0.95
CCC(OC(=O)c1nsc(Cl)c1Cl)C(=O)NC(C)(C)C (configuration not stated) | 0.7 | -0.63
CC(C)(C)SCCNS(=O)(=O)c1ccc(F)cc1 | 1.5 | -0.49
CN1CCN(NS(=O)(=O)c2ccc(Cl)s2)CC1 | 1.2 | 0.43

Reprinted from the part before: 5 entries, followed by the next part.
SMILES | KCNQ2 pot | KCNQ2 pot baseline
COc1ccc(-c2onc3ccc(Br)cc23)cc1 | 0.35 | 0.01
Cn1c(=O)c2sccc2n2c(CCCC(=O)NCc3ccc(F)cc3)nnc12 | 1.5 | -0.95
CCC(OC(=O)c1nsc(Cl)c1Cl)C(=O)NC(C)(C)C (configuration not stated) | 0.7 | -0.63
CC(C)(C)SCCNS(=O)(=O)c1ccc(F)cc1 | 1.5 | -0.49
CN1CCN(NS(=O)(=O)c2ccc(Cl)s2)CC1 | 1.2 | 0.43
O=C(NCc1cccnc1)c1ccc(COc2ccccc2Br)cc1 | 1.3 | 0.29
O=C1CC(C(=O)Nc2ccc(O)c(C(=O)O)c2)C(c2ccccc2)O1 (configuration not stated) | 1.2 | 0.61
C=CCOC(=O)Cn1cnc2c(sc3nc(C)cc(C)c32)c1=O | 0.31 | 0
CC(=O)SCCC(=O)Nc1ccccc1 | 0.08 | 0.67
COC(C[C@H](O)C[C@@H](O)COCc1ccccc1)OC | 0.16 | 0.53
CCc1nnc(NC(=O)CSc2nnc(-c3cccnc3)n2CC)s1 | 0.9 | -0.06
COc1ccc(-c2nc(-c3cccnc3)no2)cc1OC | 1.7 | -0.13
Cc1nn(S(=O)(=O)c2ccc(Cl)cc2)c(C)c1S(=O)(=O)N1CCOCC1 | 1.1 | -0.85
O=C(COC(=O)c1ccc([N+](=O)[O-])s1)NCc1ccccc1 | 1.9 | -0.96
C[C@H](NC(=O)[C@H]1N2C(=O)c3ccccc3C2SC1(C)C)C(=O)NCc1ccncc1 (some centres not stated) | 0.05 | 1.3
Clc1ccc(Cc2nnc(-c3cccs3)o2)cc1 | 0.35 | -0.05
O=C(Nc1nnc(SCc2cccnc2)s1)C1CC(=O)N(c2ccccc2)C1 (configuration not stated) | 0.19 | 1.7
Cc1nc(-c2ccccn2)sc1C(=O)Nc1ccc(F)cc1F | 0.97 | -1.2
Cc1ccc(C)c(OCc2cc(C(=O)NC3CCOC(C)(C)C3)no2)c1 (configuration not stated) | 0.01 | 1.7
Cc1nn(C(C)C(=O)Nc2ccccc2Cl)c(=O)c2nn(-c3ccccc3)c(C)c12 (configuration not stated) | 0.3 | -1
Cc1noc(C)c1CN1C(=O)NC2(CCc3ccccc3C2)C1=O (configuration not stated) | 1.6 | -0.5
CCC(C)[C@H]1CNCCN1CCc1cccc(F)c1 (some centres not stated) | 0.97 | -2.3
COc1ccccc1CNC(=O)CCCn1nc(C)c2c(C)n(-c3ccccc3)nc2c1=O | 0.31 | -0.33
COc1cc(C(=O)NNC(=O)c2cccn2C)cc(OC)c1OC | 1.4 | -0.31
COc1ccc(CCNCC(O)COc2cccc(Br)c2)cc1 (configuration not stated) | 0.09 | -0.19
O=C(NCc1ccc(N2CCCC2=O)cc1)Nc1ccccc1 | 0.95 | -0.02
COC(=O)C1=C(C(=O)OC)[C@@H]2N(C)c3ccccc3[C@@]23C[C@@H](CO)N(C(=O)NCCBr)C3=N1 | 0.33 | -0.68
O=c1[nH][nH]c2cc(=O)n(-c3ccc(Cl)cc3)nc12 | 0.76 | -0.68
Cc1ccccc1C(=O)Nc1ccccc1NC(=O)c1ccccc1C | 1.9 | -0.42
O=C(C1CCCN(S(=O)(=O)c2cccc3nonc23)C1)N1CCN(c2ccccc2)CC1 (configuration not stated) | 1.2 | -3.2

Next part; the last 6 above are carried over.
SMILES | KCNQ2 pot | KCNQ2 pot baseline
COc1ccc(CCNCC(O)COc2cccc(Br)c2)cc1 (configuration not stated) | 0.09 | -0.19
O=C(NCc1ccc(N2CCCC2=O)cc1)Nc1ccccc1 | 0.95 | -0.02
COC(=O)C1=C(C(=O)OC)[C@@H]2N(C)c3ccccc3[C@@]23C[C@@H](CO)N(C(=O)NCCBr)C3=N1 | 0.33 | -0.68
O=c1[nH][nH]c2cc(=O)n(-c3ccc(Cl)cc3)nc12 | 0.76 | -0.68
Cc1ccccc1C(=O)Nc1ccccc1NC(=O)c1ccccc1C | 1.9 | -0.42
O=C(C1CCCN(S(=O)(=O)c2cccc3nonc23)C1)N1CCN(c2ccccc2)CC1 (configuration not stated) | 1.2 | -3.2
COc1ccc2c(c1)CCc1cn3nc(C)cc3nc1-2 | 0.51 | -2.3
COCCNC(=S)N/N=C(\C)c1cccc(OC)c1 | 0.08 | 0.32
O=C(c1ccc(N2CCOCC2)nc1)N1CCCCC1 | 0.71 | 0.59
O=C(CN1CCN(c2ccc(F)cc2)CC1)NCc1ccc(F)cc1 | 0.1 | 0.65
CC1=CC(C)C2C(=O)N(c3ccccc3)NC(=O)C2C1 (configuration not stated) | 1.7 | -0.41
NC(=O)CSc1nnc(Cn2cnc3ccccc32)o1 | 1.8 | 0.49
CCn1ncc(C2=NOC(C(=O)NCCc3ccccc3)C2)c1C (configuration not stated) | 1.2 | 0.06
O=C(Nc1ccc2oc(-c3ccncc3)nc2c1)c1ccco1 | 0.11 | -1.5
CC(C)Cc1nnc(NC(=O)C23CC4CC(CC(C4)C2)C3)s1 | 0.24 | -1.4
O=C(O)CCCNC1=NCCC1 | 0.05 | 0
Cc1ccc(C)c(Oc2cc(NC(=O)CCCn3nc(C)c([N+](=O)[O-])c3C)cc([N+](=O)[O-])c2)c1 | 1.4 | -0.73
CC(C)(C)NC(=O)NC(=O)COC(=O)Cc1coc2ccc3ccccc3c12 | 0.75 | 0.83
CCOc1cc(NC(=O)CCl)c(OCC)cc1NC(=O)CCl | 0.3 | -2.5
O=C(NNC(=O)c1ccc[nH]1)c1cc(Cl)cc(Cl)c1 | 0.01 | 1.2
Cc1ccccc1C(C(=O)NC1CCCC1)N(C(=O)CNC(=O)c1ccco1)c1cccnc1 (configuration not stated) | 0.69 | 1.1
CC1=CN2CC(O)CN=C2C=C1 (configuration not stated) | 0.53 | 0.18
O=C(Nc1cccc(-c2ccc(N3CCOCC3)nn2)c1)c1ccc(Cl)cc1 | 0.86 | 1.5
Cc1ccc(S(=O)(=O)Nc2cccc(C(=O)NCc3ccccn3)c2)cc1F | 1.3 | -0.77
COc1ccc(N(CC(=O)Nc2cc(OC)c(OC)cc2C(=O)O)S(=O)(=O)c2c(C)noc2C)cc1 | 0.91 | 1.6
S=C(NCCc1ccccc1)NCCc1ccccc1 | 1.1 | -0.46
O=C(CCc1ccccc1)Nc1c(F)cccc1F | 0.08 | 0.69
Cc1cccc(NC(=O)Cn2nnc(C(=O)Nc3ccc(F)c(Cl)c3)c2N)c1 | 0.09 | 0.82
COc1ccc(NC(=O)c2ccc(-n3cncn3)c([N+](=O)[O-])c2)cc1 | 0.34 | -0.28
O=C(Nc1nc(-c2ccc(F)cc2)cs1)c1cccc(N2C(=O)CCC2=O)c1 | 0.31 | 0.27
O=C(Nc1ccccc1C(=O)O)c1ccc(NC(=O)C2CCCCC2)cc1 | 0.24 | 1.6
SMILES | KCNQ2 pot | KCNQ2 pot baseline
O=C(COC(=O)c1cccnc1Cl)NCCC1=CCCCC1 | 0.23 | 0.2
CC1(c2ccccc2)CC2CC(c3ccccc3)N1O2 (configuration not stated) | 0.45 | -1.6
CCOC(=O)c1ccc(N2C(=O)c3cccc4c(C(=O)O)ccc(c34)C2=O)cc1 | 0.9 | -0.11
Cc1ccc(-n2nnnc2SCC(=O)NC(C(=O)O)(c2ccccc2)c2ccccc2)cc1C | 0.01 | 0.54
O=C(O)c1ccc(N2CCOCC2)c(N2C(=O)C3C4C=CC(C4)C3C2=O)c1 (configuration not stated) | 2.1 | -1.6
Cc1ccccc1CN1CCN(CC(=O)NC(C)c2ccccc2)CC1 (configuration not stated) | 0.4 | -1.4
Cn1cnc([N+](=O)[O-])c1Nc1ccc(O)cc1 | 0.52 | 0.1
O=C(NC1CCCC1)C(c1ccccn1)N(C(=O)c1csnn1)c1ccccc1Cl (configuration not stated) | 0.81 | -0.33
CC(Oc1ccc(F)cc1)C(=O)NN (configuration not stated) | 1.3 | -0.21
O=C(CN1CCCC1)N/N=C/c1ccc(-c2cccc(Cl)c2)o1 | 0.11 | 3.4
O=C1CN(C(=O)COc2ccccc2F)c2ccccc2N1 | 0.22 | -0.13
COc1ccc2c(c1)C=C(C(=O)OCc1cccnc1)CO2 | 0.03 | -0.28
CC(=O)Nc1ccc(OS(=O)(=O)c2ccc(Cl)cc2)cc1 | 1.9 | -0.08
CS(=O)(=O)Nc1ccc(C(=O)Nc2ccc3c(c2)OCCO3)cc1 | 1.3 | -1.4
CN(C)CC(C)(C)CN=Cc1c(O)[nH]c2ccccc12 | 0.32 | -0.09

Not all compounds are listed; the hit share may differ from the screen's.
